PKD1 kinase inh: inhibitors of human PKD1 kinase; Q15139; PKD1 kinase fluorescence polarization assay; inhibition, %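 (about 10 µM by stock and volumes)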; actives 0.056% (n = 200,000); AID 797;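 active means inhibition of 50% or more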;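 further: controls were vehicle for no effect and a reference inhibitor for full effect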
RGS16-Gao: modulates binding between human RGS16 and Galphao; actives 0.38% (n = 220,000); binding response (% of control), % at 10 µM; O15492+P09471; bead-based flow cytometry RGS16-Galphao binding, fluorescence; actives lie on both sides; AID 1441;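 active means below 25% or above 175%, edge rows of some plates excepted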;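 further: Galphao activated by GDP with aluminum fluoride before binding; 100% = wells without compound and 0% = beads without RGS; some results beyond the cut were filed as inactive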
Target sequence (O15492 whole entry, looked up): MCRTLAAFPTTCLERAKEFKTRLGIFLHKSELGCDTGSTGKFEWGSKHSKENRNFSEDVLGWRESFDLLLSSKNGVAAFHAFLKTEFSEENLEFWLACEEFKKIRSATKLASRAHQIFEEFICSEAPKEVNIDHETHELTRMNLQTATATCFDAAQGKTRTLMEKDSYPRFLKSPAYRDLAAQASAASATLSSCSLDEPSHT
Target sequence (P09471 whole entry, looked up): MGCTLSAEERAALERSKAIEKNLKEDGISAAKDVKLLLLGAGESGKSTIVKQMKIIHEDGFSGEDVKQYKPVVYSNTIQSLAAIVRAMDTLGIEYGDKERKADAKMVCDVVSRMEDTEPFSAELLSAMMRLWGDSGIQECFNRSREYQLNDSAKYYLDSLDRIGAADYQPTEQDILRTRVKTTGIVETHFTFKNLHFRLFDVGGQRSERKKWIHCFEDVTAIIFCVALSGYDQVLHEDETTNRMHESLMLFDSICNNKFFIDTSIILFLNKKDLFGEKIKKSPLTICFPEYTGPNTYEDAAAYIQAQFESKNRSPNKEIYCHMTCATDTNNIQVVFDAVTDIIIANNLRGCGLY
HSV replic up: HSV replication enhancement; HSV replication augmentation in cells, fold increase; maximum fold increase; actives 0.005% (n = 220,000); AID 1956;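 active means peak rise of 1.5-fold or more in the series; tested in PC3 cells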;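 further: first round at 10 µM; read as green reporter fluorescence; hits show the peak of a series up to 25 µM; 1 = signal of infected wells without compound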
GALR2 agonist: agonists of human galanin receptor 2 (GALR2) | activation, %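 (tested at 5 µM)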 | GALR2-expressing cells, agonist activation read-out | actives 0.48% (n = 140,000) | O43603 | AID 803;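 active means above mean plus 3 SD of all compounds, about 5% in these data, not always enough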;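 further: 0% = vehicle buffer wells and 100% = reference agonist at full effect; tested in CHO reporter cells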
Target sequence (O43603 whole entry, looked up): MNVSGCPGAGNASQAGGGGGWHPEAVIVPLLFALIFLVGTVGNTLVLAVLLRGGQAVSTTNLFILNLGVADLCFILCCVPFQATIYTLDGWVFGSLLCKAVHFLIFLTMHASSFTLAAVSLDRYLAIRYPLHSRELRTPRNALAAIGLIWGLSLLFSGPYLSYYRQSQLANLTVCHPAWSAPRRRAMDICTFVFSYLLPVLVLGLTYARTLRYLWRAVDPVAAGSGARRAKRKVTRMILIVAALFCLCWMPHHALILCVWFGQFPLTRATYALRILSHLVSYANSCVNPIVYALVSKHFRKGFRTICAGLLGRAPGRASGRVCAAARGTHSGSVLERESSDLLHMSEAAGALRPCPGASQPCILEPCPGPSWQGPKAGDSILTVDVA
Insulin prom inh: TRM-6 insulin promoter activity inhibition; TRM-6 cells (human fetal islet line), insulin promoter-eGFP reporter, imaging; reporter expression induced with tamoxifen; inhibition, % at 2 µM; actives 0.9% (n = 130,000); AID 1273;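 active means inhibition above the mean plus 3 SD, with well images judged a real hit on visual review, cut at about 60% in these data, passing the limit was not always enough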
Insulin prom inh cell count: second read-out of Insulin prom inh, no call of its own (marks repeat the call); normalized cell count, %; measured here: cell count, toxicity; reference of the scale not given here;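 cells exposed to compound for 48 h; stained nuclei by imaging scaled within each plate; lower means fewer cells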
HSV replic up primary fold: recorded beside HSV replic up, whose call it bears; fold increase; compound at 10 µM; measured here: primary screen fold increase 10 uM; tested in PC3 cells;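 GFP signal in the first replicate; 1 = infected wells without compound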
* hit, by the source's call; i = inactive; nt = not tested or not shown.

SMILES	PKD1 kinase inh	RGS16-Gao	HSV replic up	HSV replic up primary fold	GALR2 agonist	Insulin prom inh	Insulin prom inh cell count
Cc1ccn(CC(=O)N2N=C(C(F)F)CC2(O)C(F)F)n1 (centres undefined)	7	104	i	0.9	-3.5	0	125
Cc1cc(NC(=O)COC(=O)C2CCC(=O)N2)c([N+](=O)[O-])cc1C (centres undefined)	4	105	i	0.96	nt	57	96
O=C1CSC(c2cccc([N+](=O)[O-])c2)N1c1c(F)cccc1F (centres undefined)	3	102	i	0.83	nt	-7	81
CC(C)CCn1nnnc1C(c1ccccc1)N1CCN(C)CC1 (centres undefined)	-4	100	i	1	-0.2	nt	nt
COc1ccc(NC(=O)Cc2ccc(C)cc2)c([N+](=O)[O-])c1	-12	100	i	0.99	-0.1	7	116
CCCCNS(=O)(=O)c1ccc2nc(-c3cccnc3)cc(C(=O)NC3CCCC3)c2c1	nt	100	i	0.84	nt	nt	nt
N#CC(C#N)=C1C=CC=CN1/C(=C\c1ccco1)C(=O)c1ccc(Cl)cc1	-4	94	i	0.86	-0.5	nt	nt
CCOC(=O)c1c(-c2ccc(OC)cc2)cn2ccccc12	3	99	i	1.1	nt	30	110
C=CCN(C(=O)C1=NN(C2CCS(=O)(=O)C2)C(=O)CC1)c1nc(-c2ccc([N+](=O)[O-])cc2)cs1 (centres undefined)	0	107	i	1.1	nt	nt	nt
Cc1ccc(C(=O)NCC(=O)N/N=C/c2cccs2)cc1C	-6	126	i	0.91	nt	-58	110
CC1CCN(CCCNC(=O)c2ccc3c(=O)n(CCc4ccccc4)c(=O)[nH]c3c2)CC1	0	105	i	0.76	-2.5	-14	23
O=c1c2ccccc2nnn1CSc1nnc(-c2cccs2)n1Cc1ccccc1	-14	107	i	0.96	-1.4	-4	117
CCCC1COC(Cn2cncn2)(c2ccc(C)cc2)O1 (centres undefined)	-4	105	i	0.82	-2.3	-50	106
Cn1c(Cn2c(=O)sc3ccccc32)nnc1SCc1ccccc1F	-2	100	i	1.1	-3.4	nt	nt
O=C1OC2CCC1(c1ccccc1)C2 (centres undefined)	-4	55	i	0.94	-1.4	i	25
c1ccc(-c2nc(N3CCCCCC3)nc(-n3ccnc3)n2)cc1	10	92	i	1.1	0.6	30	82
CC(C)(C)NC(=O)CSc1nnc(C2CC2)n1Cc1ccccc1	-13	103	i	0.98	-0.9	nt	nt
Cc1cc([N+](=O)[O-])cc(/C=N/n2c(C)nc3ccccc3c2=O)c1O	nt	101	i	1	nt	nt	nt
COc1cc(NC(=O)C(=O)NCCN(C)C)c(OC)cc1Cl	-1	98	i	0.86	nt	-67	140
CCn1cc(C(=O)NCc2ccc3c(c2)OCO3)c(=O)c2cc(F)c(N3CCN(C)CC3)cc21	-8	101	i	0.62	0.6	-64	87
O=C(CSCc1ccc(Cl)cc1)N1CCN(Cc2ccc3c(c2)OCO3)CC1	8	106	i	1.1	-1.8	17	64
CCOC(=O)CCNC(C(=O)OCC)c1ccccc1 (centres undefined)	-9	101	i	0.85	-1.5	31	86
CCn1nnc(-c2ccccc2NC(=O)c2cccc(-n3cnnn3)c2)n1	-2	101	i	1.3	-1.1	-38	81
CC(C)n1c(SC2C(=O)CC(C)(C)CC2=O)nc2c1c(=O)n(C)c(=O)n2C	3	99	i	0.88	0.8	-40	131
Cc1cc2ncn(CC(O)COC3CCCCC3)c2cc1C (centres undefined)	-5	102	i	0.97	-0.8	-42	81
O=[N+]([O-])/C=C/c1c(OCc2ccccc2)ccc2ccccc12	-5	92	i	0.59	-0.5	43	219
C=CCNC(=O)CCNS(=O)(=O)c1ccc(Br)cc1	-7	105	i	0.85	-3.2	nt	nt
CC(C)(C)c1cc(CN2CCN(CCO)CC2)cc(C(C)(C)C)c1O	-2	102	i	1	-0.3	3	122
CCOC(=O)CCn1c(CC(=O)OCC)nc2ccccc21	-8	99	i	0.91	-0.4	-41	100
Cc1cc(C)c(C#N)c(SCCS(=O)(=O)Cc2ccccc2)n1	-14	99	i	0.88	0.9	30	148
O=C(CNC(=O)C12CC3CC(CC(C3)C1)C2)NC1=NCCS1	-8	99	i	0.86	-2.9	-13	165
Cc1cc(C)c2cc(C=O)c(Cl)nc2c1	-5	72	i	0.79	nt	7	8
CCCCCCN(C(=O)CCCCCN1C(=O)NC(c2ccc(-c3ccccc3)cc2)C(C(=O)OCc2ccccc2)=C1C)C(C(=O)NCCCC)c1ccc(O)c(C(=O)OC)c1 (centres undefined)	nt	105	i	1	nt	nt	nt
CC(C)(C)N=C1C([N+](=O)[O-])=CC=C2C1=NC1(CCCCC1)N2O	-6	93	i	1.1	-1.5	-10	107
O=C(/C=C/c1ccc(F)cc1)NCc1cccs1	1	111	i	1.1	-1.6	17	71
Cn1cc([N+](=O)[O-])c(C(=O)N/N=C/c2ccc([N+](=O)[O-])cc2)n1	-3	106	i	1.1	-0.3	-52	112
NS(=O)(=O)c1ccc(N=Cc2c(O)c3ccccc3oc2=O)cc1	-7	104	i	0.96	nt	nt	nt
COc1ccc(OC)c(CN2CCN(Cc3cccc4ccccc34)CC2)c1	-8	95	i	0.84	nt	nt	nt
Cn1nnnc1SCC(=O)N1CCN(Cc2ccccc2)CC1	-3	102	i	1.2	-0.5	nt	nt
Cc1ccc2c(c1)c(Sc1ccccc1)c(CC(=O)O)n2C	-3	66	i	0.99	-0.7	63	118
CCc1ccc(NS(=O)(=O)c2ccc(OC)c(C)c2)cc1	-3	89	i	0.68	-1.3	nt	nt
CN1CCN(C(=O)c2ccccc2NC(=O)C(C)(C)C)CC1	-3	102	i	0.79	-3.4	41	100
CC(C)(C)NC(=O)C1CCC(C)(C(=O)O)C1(C)C (centres undefined)	-4	96	i	0.75	-0.8	-319	83
CC1=C(C(=O)Nc2ccccc2)C(c2ccco2)C(C#N)=C(SCC(=O)OC(C)C)N1 (centres undefined)	1	97	i	0.92	-1.2	nt	nt
O=C(CSc1ccccc1C(=O)O)c1ccc([N+](=O)[O-])cc1	-6	95	i	1.1	nt	nt	nt
CC(=O)OC(C)(CCC(C)(OC(C)=O)C(C)=O)C(C)=O (centres undefined)	-5	44	i	0.87	-1.2	nt	nt
CNC(=S)N(Cc1cc2ccc(OC)cc2[nH]c1=O)CC1CCCO1 (centres undefined)	3	109	i	0.96	nt	11	137
CNC(=O)CN(c1cc(C)ccc1C)S(C)(=O)=O	-4	100	i	1.1	-0.3	39	173
O=C(NCc1ccccc1)C12CN(Cc3ccccc3)CC1C(c1cccc([N+](=O)[O-])c1)=NO2 (centres undefined)	-5	97	i	0.94	-2.1	-32	214
CCOC(=O)c1c(NC(=O)c2noc3c2CCCC3)sc(C)c1C	12	85	i	0.92	-1.2	nt	nt
COc1ccc2nc(SCc3cccnc3)c(C#N)cc2c1	-10	102	i	1.1	-0.9	0	119
Cc1ccc(N(CC(=O)NCC2CCCO2)C(=O)CCC(=O)Nc2ccccn2)cc1C (centres undefined)	-2	120	i	0.91	-1.2	-8	160
Cc1cc([N+](=O)[O-])c(C)cc1-c1ccc(/C=N/NC(=O)Cn2nnnc2N)o1	-5	106	i	0.97	nt	-36	176
Cc1nn(-c2ccccc2)c(C)c1C(=O)OCC(=O)N1c2ccccc2NC(=O)C1(C)C	-8	107	i	0.96	-2.4	-26	76
COc1cccc(OC)c1C(=O)NC(=S)Nc1cccc(NC(=O)c2ccco2)c1	-5	78	i	0.99	nt	nt	nt
COc1ccc(C(=O)C2CCCN(C(=O)c3cc(C(C)C)no3)C2)cc1F (centres undefined)	-1	103	i	1.1	nt	nt	nt
O=C(CC1NCCNC1=O)Nc1ccc([N+](=O)[O-])cc1 (centres undefined)	4	93	i	1.1	nt	nt	nt
COc1ccccc1CN1C(=O)CN(C2CCCC2)C(=O)C1c1ccc(F)cc1 (centres undefined)	12	98	i	0.88	-0.4	nt	nt
O=C(Nc1cccs1)Nc1ccccc1Cl	-14	101	i	1	-0.8	nt	nt
O=C(Nc1nc(-c2ccc(F)c(F)c2)cs1)c1cnccn1	nt	101	i	0.97	nt	nt	nt
New compounds follow
SMILES	PKD1 kinase inh	RGS16-Gao	HSV replic up	HSV replic up primary fold	GALR2 agonist	Insulin prom inh	Insulin prom inh cell count
CN1CCN(C2=C(Cl)C(=O)N(Cc3ccccc3)C2=O)CC1	-13	101	i	0.73	-0.7	nt	nt
CC(=O)NC(=S)NNC(=O)COc1ccc(Br)cc1	4	91	i	1	nt	-50	152
COc1ccc(OC)c(/C=N/NC(=O)CC(=O)NCc2ccccc2)c1	10	70	i	1.1	nt	nt	nt
CCOC(=O)C1(CC2CCCCO2)CCN(Cc2cc(F)ccc2-n2cccn2)CC1 (centres undefined)	0	105	i	0.92	nt	20	84
COc1cccc(-c2cc(N)nn2C(=O)Nc2ccc(Cl)cc2)c1	-16	99	i	1	-1.0	nt	nt
O=c1oc2ccc3ccccc3c2c2c1SC(C(F)(F)F)C2 (centres undefined)	-3	105	i	0.83	-1.6	-18	103
O=C(c1ccc2c(=O)n(C3CCCC3)c(=S)[nH]c2c1)N1CCCCCC1	-6	102	i	0.89	nt	-7	118
CCOc1ccc(OCc2ccc(C(=O)Nc3cccnc3)o2)cc1	1	73	i	0.94	-1.2	13	129
O=C(NO)c1ccc(C(=O)N(C2CCCCC2)C2CCCCC2)cc1	-8	56	i	0.9	-2.9	-12	87
Cc1onc(-c2c(Cl)cccc2Cl)c1NC(=O)N(C)N	nt	131	i	0.88	nt	nt	nt
O=C(COC(=O)c1ccncc1)NC(=O)C1CCCCC1	3	102	i	0.97	-0.4	-5	73
Cc1cc(C)n2ncc(C(=O)Nc3ccc(Cl)c(Cl)c3)c2n1	-3	112	i	0.86	nt	-5	144
Cc1ccc(S(=O)(=O)NCc2cn3c(C)csc3n2)cc1	-7	107	i	0.99	0.1	nt	nt
CCC1CCCCN1c1nc2c(C=O)c(C)nn2c2ccccc12 (centres undefined)	-1	81	i	0.9	3.5	-71	105
O=C(Nc1sc2c(c1-c1nc3ccccc3[nH]1)CCCC2)C1CCCC1	0	100	i	0.99	-1.0	-73	124
Nc1[nH]n(-c2ccccc2)c(=O)c1N=Nc1ccc2ncsc2c1	nt	104	i	1.2	nt	nt	nt
CCOC(=O)COC(=O)c1ccc(Oc2cc(C)nc(SC)n2)cc1	-3	nt	i	0.93	-1.2	-28	134
COc1ccc(N(C=O)C(=S)SC)cc1	nt	96	i	0.81	nt	nt	nt
OC1(c2ccc(Cl)cc2)CCN(Cc2cn[nH]c2-c2ccc(F)cc2)CC1	nt	99	i	0.83	nt	nt	nt
CC(=O)N(C)/C=C1\Sc2ccccc2C1=O	-6	93	nt	nt	-0.4	-29	87
COC(=O)c1ccc(Cn2cc(C(F)(F)F)cc([N+](=O)[O-])c2=O)cc1	-7	97	i	0.92	nt	nt	nt
COc1ccc(-n2c(Cc3cccn3C)nnc2SCC(=O)NCC2CCCO2)cc1 (centres undefined)	-7	99	i	1.2	-2.9	nt	nt
c1ccc(CNc2nc3ccccc3n3cnnc23)cc1	2	99	i	1	-1.9	nt	nt

Compounds above that have an aryl thioether with sulfur outside any ring:
SMILES	PKD1 kinase inh	RGS16-Gao	HSV replic up	HSV replic up primary fold	GALR2 agonist	Insulin prom inh	Insulin prom inh cell count
O=c1c2ccccc2nnn1CSc1nnc(-c2cccs2)n1Cc1ccccc1	-14	107	i	0.96	-1.4	-4	117
Cn1c(Cn2c(=O)sc3ccccc32)nnc1SCc1ccccc1F	-2	100	i	1.1	-3.4	nt	nt
CC(C)(C)NC(=O)CSc1nnc(C2CC2)n1Cc1ccccc1	-13	103	i	0.98	-0.9	nt	nt
CC(C)n1c(SC2C(=O)CC(C)(C)CC2=O)nc2c1c(=O)n(C)c(=O)n2C	3	99	i	0.88	0.8	-40	131
Cc1cc(C)c(C#N)c(SCCS(=O)(=O)Cc2ccccc2)n1	-14	99	i	0.88	0.9	30	148
Cn1nnnc1SCC(=O)N1CCN(Cc2ccccc2)CC1	-3	102	i	1.2	-0.5	nt	nt
Cc1ccc2c(c1)c(Sc1ccccc1)c(CC(=O)O)n2C	-3	66	i	0.99	-0.7	63	118
O=C(CSc1ccccc1C(=O)O)c1ccc([N+](=O)[O-])cc1	-6	95	i	1.1	nt	nt	nt
COc1ccc2nc(SCc3cccnc3)c(C#N)cc2c1	-10	102	i	1.1	-0.9	0	119
CCOC(=O)COC(=O)c1ccc(Oc2cc(C)nc(SC)n2)cc1	-3	nt	i	0.93	-1.2	-28	134
COc1ccc(-n2c(Cc3cccn3C)nnc2SCC(=O)NCC2CCCO2)cc1 (centres undefined)	-7	99	i	1.2	-2.9	nt	nt

Compound activity deposited in PubChem BioAssay by several laboratories.
